HSD17B inh – qHTS Assay for Inhibitors of HSD17B4, hydroxysteroid (17-beta) dehydrogenase 4; 3-hydroxyacyl-CoA dehydrogenase type-2 (Homo sapiens), Q99714; recombinant HSD17B10, NADH fluorescence kinetic; many of its hits are not listed in these tables; Potency, µM (top dose mostly 57.1 µM), for the others: top-dose activity change, negative = inhibition, usual class: inhibitors; hit rate 7.6% among 75,000; AID 893, 2007; active means well fitted inhibition curve with a large enough effect; inconclusive means small, poorly fitted or top-dose-only effect; inactive means no such curve, though single readings can be large or run the other way;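 further: the protocol describes HADH2 (HSD17B10) and not the HSD17B4 of the title; nearly all actives have a fitted effect of over 70% in size; most hits overshoot -100% by far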
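Enzyme plus compound, 15 min room temperature; substrate mix added (NAD+ 1 mM, beta-hydroxybutyryl-CoA 90 uM final); plates read kinetically for NADH fluorescence. HADH2 was His-tagged, E. coli-derived, 20 nM.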
Active calls of the source: *; [ ] = remark or other dose. On the % scale 0 is the no-effect control and ±100 the full control effect; potency means the concentration at half of the fitted maximal effect.

The opening 16 compounds, ahead of the listing:
COc1ccc(CNc2ccc3cn[nH]c3c2)c(OC)c1OC was read as HSD17B inh 25µM*.
O=C(CN1CCN(Cc2ccccc2)CC1)c1c[nH]c2ccccc12 was read as HSD17B inh -9%.
Screening O=S1(=O)NC(=NCc2ccccc2)c2ccccc21 returned HSD17B inh 4%.
For CCC(CC)NC(=O)c1n[nH]c(=O)c2ccccc12 the results were HSD17B inh 7%.
Cc1cc(Cl)ccc1OCCCC(=O)NC1CCN(C)CC1 was read as HSD17B inh 5%.
CCCn1c(=O)[nH]c(=O)c2[nH]cnc21 was read as HSD17B inh 4%.
Screening COc1ccc(/C=N/n2cc(-c3ccccc3)nc2N)cc1 returned HSD17B inh -5%.
CC1Cc2nc(SCC(=O)NCc3ccco3)n(-c3ccccc3)c(=O)c2S1 (stereo unspecified) was read as HSD17B inh 32µM*.
`Cc1c(C(N)=O)cc([N+](=O)[O-])cc1[N+](=O)[O-]` gave HSD17B inh 0%.
`O=C1c2ccccc2C(Nc2ccc(F)c(Cl)c2)N1c1ccccn1` (stereo unspecified) gave HSD17B inh -1%.
c1c2c(cc3sc(N4CCCCC4)nc13)OCO2 was read as HSD17B inh 32µM*.
For COc1ccccc1NC(=O)COc1ccc(C(=O)OCC(=O)N2CCCC2=O)cc1OC the results were HSD17B inh 7%.
CC(C(=O)NCC1CCCO1)N(C(=O)c1snc(C(N)=O)c1N)c1cccc(F)c1 (stereo unspecified) was read as HSD17B inh 32µM*.
For CC(=O)c1cccc(NS(=O)(=O)N2CCCCC2)c1 the results were HSD17B inh 1%.
For Cc1nc2cnc(Oc3ccccc3)nc2n(C)c1=O the results were HSD17B inh 7%.
Screening O=C(Oc1ccccc1C(=O)N1CCOCC1)c1ccccc1 returned HSD17B inh 14%.

This part in full, from the first entry:
COc1ccc(CNc2ccc3cn[nH]c3c2)c(OC)c1OC was read as HSD17B inh 25µM*.
O=C(CN1CCN(Cc2ccccc2)CC1)c1c[nH]c2ccccc12 was read as HSD17B inh -9%.
Screening O=S1(=O)NC(=NCc2ccccc2)c2ccccc21 returned HSD17B inh 4%.
For CCC(CC)NC(=O)c1n[nH]c(=O)c2ccccc12 the results were HSD17B inh 7%.
Cc1cc(Cl)ccc1OCCCC(=O)NC1CCN(C)CC1 was read as HSD17B inh 5%.
CCCn1c(=O)[nH]c(=O)c2[nH]cnc21 was read as HSD17B inh 4%.
Screening COc1ccc(/C=N/n2cc(-c3ccccc3)nc2N)cc1 returned HSD17B inh -5%.
CC1Cc2nc(SCC(=O)NCc3ccco3)n(-c3ccccc3)c(=O)c2S1 (stereo unspecified) was read as HSD17B inh 32µM*.
`Cc1c(C(N)=O)cc([N+](=O)[O-])cc1[N+](=O)[O-]` gave HSD17B inh 0%.
`O=C1c2ccccc2C(Nc2ccc(F)c(Cl)c2)N1c1ccccn1` (stereo unspecified) gave HSD17B inh -1%.
c1c2c(cc3sc(N4CCCCC4)nc13)OCO2 was read as HSD17B inh 32µM*.
For COc1ccccc1NC(=O)COc1ccc(C(=O)OCC(=O)N2CCCC2=O)cc1OC the results were HSD17B inh 7%.
CC(C(=O)NCC1CCCO1)N(C(=O)c1snc(C(N)=O)c1N)c1cccc(F)c1 (stereo unspecified) was read as HSD17B inh 32µM*.
For CC(=O)c1cccc(NS(=O)(=O)N2CCCCC2)c1 the results were HSD17B inh 1%.
For Cc1nc2cnc(Oc3ccccc3)nc2n(C)c1=O the results were HSD17B inh 7%.
Screening O=C(Oc1ccccc1C(=O)N1CCOCC1)c1ccccc1 returned HSD17B inh 14%.
`O=C(Nc1nncs1)Oc1ccccc1` gave HSD17B inh -3%.
For CC1CCN(C(=O)C2CCC(CNS(=O)(=O)c3cccc4cccnc34)CC2)CC1 (stereo unspecified) the results were HSD17B inh 1%.
CCOC(=O)c1c(C)[nH]c(C(=O)COC(=O)c2ccncc2)c1C was read as HSD17B inh 7%.
Screening Nn1c(Nc2ccccc2)nc2ccccc21 returned HSD17B inh 3%.
`COc1ccc(N(C)C(=O)CCS(=O)(=O)c2cccc3nonc23)cc1` gave HSD17B inh -5%.
For CC(C)C(c1nnnn1Cc1ccco1)N1CCN(C2CCCC2)CC1 (stereo unspecified) the results were HSD17B inh -9%.
Screening CN=c1scc(C)n1/N=C/c1ccc(O)cc1 returned HSD17B inh -16%.
For CN1CCN(c2ncncc2-c2ccc(N(C)C)cc2)CC1 the results were HSD17B inh inconclusive.
CCN(CC)C(C)CN1c2ccccc2Sc2ccccc21 (stereo unspecified) was read as HSD17B inh inconclusive.
`CCN1C(=O)/C(=C2/Sc3ccccc3N2CCCS(=O)(=O)O)SC1=S` gave HSD17B inh inconclusive.
Screening Cc1csc2nc3ccccc3c(=O)n12 returned HSD17B inh 32µM*.
O=C(NCc1ccncc1)C12CC3CC(CC(C3)C1)C2 was read as HSD17B inh -29%.
`COc1ccc(-c2csc(N3CCN(C(=O)c4ccco4)CC3)n2)cc1` gave HSD17B inh -9%.
`Cc1cccc(-c2noc(CN(C(=O)c3ccc(Br)o3)C(C)C)n2)c1` gave HSD17B inh -24%.
Screening C=CCOC(=O)C1=C(C)NC(=O)NC1C1CC=CCC1 (stereo unspecified) returned HSD17B inh -3%.
`Cc1cc(NCCCN2CCOCC2)n2ncc(-c3ccccc3)c2n1` gave HSD17B inh -15%.
Screening CCOC(=O)N1CCN(C(=O)C(C)(C)Oc2ccc(Cl)cc2)CC1 returned HSD17B inh -7%.
Screening CN(C)S(=O)(=O)c1ccc2oc(SCC(=O)NCC(F)(F)F)nc2c1 returned HSD17B inh 5%.
`Cc1csc2ncc(C(=O)NCc3ccco3)c(=O)n12` gave HSD17B inh 25µM*.
`O=C(CCN1CCc2ccccc2C1)Nc1ccccc1F` gave HSD17B inh 5%.
CCSc1nc2ccccc2n1CCC(=O)O was read as HSD17B inh 9%.
For O=C(Nc1ccccc1)N1CCCN(Cc2ccccc2F)C1 the results were HSD17B inh 4%.
Screening COc1ccccc1N(CC(=O)NC1CCCC1)C(=O)CCC(=O)Nc1cc(C)on1 returned HSD17B inh 12%.
Screening CCOC(=O)C(NC(=O)c1ccc(OC)cc1)(OCC1(CC)COC1)C(F)(F)F (stereo unspecified) returned HSD17B inh 4%.
Screening COc1ccc(NC(=O)c2cc(-c3cc(C)ccc3O)n[nH]2)cc1Cl returned HSD17B inh 4%.
COc1ccccc1-c1nc(NCc2cccs2)c2ccccc2n1 was read as HSD17B inh -13%.
`Cn1c(=O)n(Cc2ccc(F)cc2)c(=O)c2c1nc1n2CCCN1Cc1ccccc1` gave HSD17B inh -19%.
CCCS(=O)(=O)N1CCN(Cc2ccc(OCc3ccccc3)c(OC)c2)CC1 was read as HSD17B inh 6%.
For O=C(Nc1nn(Cc2ccccc2F)cc1Br)c1cccs1 the results were HSD17B inh -3%.
CCOC(=O)N1CCN(C(=O)c2cccc(NC(=O)c3ccco3)c2)CC1 was read as HSD17B inh 5%.
`O=C(COc1ccc(Cl)cc1Cl)NC(=O)N1CCCCC1` gave HSD17B inh 10%.
Screening O=C(c1cnn2c1NC(c1ccc(Br)cc1)CC2C(F)(F)F)N1CCN2CCCC2C1 (stereo unspecified) returned HSD17B inh -3%.
For O=c1c(O)c(-c2cccc(O)c2)oc2ccccc12 the results were HSD17B inh -25%.
Screening CCOc1cc(C)c(Cl)cc1S(=O)(=O)n1nnc2ccccc21 returned HSD17B inh 2%.
`O=C(Cn1cnc2sc(-c3ccccc3)cc2c1=O)NCc1ccco1` gave HSD17B inh 16µM*.
For CC(C)(C)NC(=O)c1sccc1C(=O)O the results were HSD17B inh 9%.
For COc1ccc(NC(=O)CNc2cccc(C#N)c2)cc1Cl the results were HSD17B inh 9%.
`O=C(c1cc(C(F)(F)F)cc(C(F)(F)F)c1)N1CCC[C@@]2(CCN(Cc3ccncc3)C2)C1` gave HSD17B inh 4%.
O=c1nc2n(c3c4c(sc13)CCC4)CCC2 was read as HSD17B inh 4%.
Nc1nc2c3ccccc3nc(C3CC3)n2n1 was read as HSD17B inh inconclusive.
`COc1ccccc1-n1nnnc1S(=O)(=O)Cc1ccc(Cl)cc1` gave HSD17B inh inconclusive.
Cn1ccnc1SCC(=O)N(C1CCCCC1)C1CCCCC1 was read as HSD17B inh 10%.
`COC(=O)[C@@H](NC(=O)Nc1ccccc1F)C(C)C` gave HSD17B inh 3%.
For Cc1ccc(C)c(S(=O)(=O)NC(CC(C)C)C(=O)O)c1 (stereo unspecified) the results were HSD17B inh -3%.
For CC(=O)Nc1nc(CC(C)C)cc(-c2ccco2)c1C#N the results were HSD17B inh 25µM*.
For O=C(O)c1cc2ccc3ccccc3c2[nH]1 the results were HSD17B inh 25µM*.
Screening Fc1cccc2sc(Nc3nnc(-c4ccccc4)o3)nc12 returned HSD17B inh 25µM*.
`COC(=O)Cn1cc(C(=O)OC)c2ccccc21` gave HSD17B inh 0%.
`COc1ccc(-c2nnn(CC(=O)N(CC(=O)NCCC(C)C)Cc3cccs3)n2)cc1OC` gave HSD17B inh -6%.
`Cc1c(NC(=O)C(C)OC(=O)CC2Sc3ccccc3NC2=O)c(=O)n(-c2ccccc2)n1C` (stereo unspecified) gave HSD17B inh -12%.
For O=C1OCCC1Sc1nc2ccccc2[nH]1 (stereo unspecified) the results were HSD17B inh -7%.
COC(=O)C1C2C=CC3(CN(CC4CCCO4)C(=O)C13)O2 (stereo unspecified) was read as HSD17B inh 6%.
Screening O=C(O)C1CCN(S(=O)(=O)c2cccnc2)CC1 returned HSD17B inh 1%.
For Cn1c2ccccc2c2c(C(=O)NCc3ccco3)cn(C3CCCCC3)c(=O)c21 the results were HSD17B inh 13µM*.
`COc1cccc(-c2cc(C(=O)Nn3cnnc3)c3ccccc3n2)c1` gave HSD17B inh -6%.
`CNc1ccc(O)cc1` gave HSD17B inh 7.9µM*.
Screening CCCCCCC1=Cc2cc(OC)c(OC)cc2C(C(C(C)=O)C(=O)OC)O1 (stereo unspecified) returned HSD17B inh 2%[11.4 µM].
O=C(CN1C(=O)C2C3C=CC(C3)C2C1=O)NCCc1ccccc1 (stereo unspecified) was read as HSD17B inh 4%.
Screening Cc1ccc(S(=O)(=O)N2CCC(C(=O)Nc3ccccc3N3CCCCC3)CC2)cc1 returned HSD17B inh 9%.
Screening CCCC/C=C/C(NC(=O)CCc1ccccc1)c1ccccc1 (stereo unspecified) returned HSD17B inh -23%.
For CCOC(=O)N1CCN(C(=O)CSc2nnc(-c3ccc(C(C)(C)C)cc3)o2)CC1 the results were HSD17B inh 1%.
Screening COc1ccc(-c2noc(CCC(=O)N3CCN(c4cc(C)ccc4C)CC3)n2)cc1 returned HSD17B inh 7%.
Screening COc1ccc(N2CCN(c3ncnc4c3cnn4-c3ccc(C)cc3C)CC2)cc1 returned HSD17B inh 1%.
Screening O=C(CCC1COc2ccccc2O1)NCC1COc2ccccc2O1 (stereo unspecified) returned HSD17B inh 2%.
`c1cncc(CNc2nc(-c3cccnc3)nc3ccccc23)c1` gave HSD17B inh 3%.
`Nc1c(NCCC2=CCCCC2)c(=O)[nH]c(=O)n1Cc1ccccc1` gave HSD17B inh inconclusive.
`CC(C)(C)c1nc2scc(-c3cccs3)c2c(=O)o1` gave HSD17B inh -19%.
Screening O=C(NCc1ccccc1Cl)c1cnn2cccnc12 returned HSD17B inh inconclusive.
For O=C1C2[C@@H](c3ccccc3)N[C@@H](c3ccccc3)C1[C@H](c1ccccc1)N[C@H]2c1ccccc1 the results were HSD17B inh 1%[11.4 µM].
For CCCn1c(CNc2ccccc2O)nc2ccccc21 the results were HSD17B inh -26%.
For Cc1ccn2cc(C(=O)Nc3ccc4c(c3)OCCO4)nc2c1 the results were HSD17B inh 2%.
CCC(=O)Nc1c(C(=O)N2CCCCCC2)cnn1-c1ccc(C)c(C)c1 was read as HSD17B inh 9%.
`CCN(CC)S(=O)(=O)c1ccc(Cl)c(C(=O)NC)c1` gave HSD17B inh 5%.
Screening COc1ccc(NC(=O)CN(C)S(=O)(=O)c2cccs2)cc1 returned HSD17B inh -4%.
Screening COCCn1nnnc1CN1CCC(Cc2ccccc2)CC1 returned HSD17B inh -1%.
`CCc1cccc(NC2c3ccccc3C(=O)N2c2cccnc2)c1` (stereo unspecified) gave HSD17B inh 3%.
For CCOC(=O)N1CCC(Nc2c(N3CCN(c4cc(Cl)ccc4C)CC3)c(=O)c2=O)CC1 the results were HSD17B inh 1%.
`CCN(CC)S(=O)(=O)c1cccc(C(=O)Oc2cccnc2)c1` gave HSD17B inh 2%.
Cc1cc(-c2ccccc2)nc(=O)[nH]1 was read as HSD17B inh 1%.
Screening CC1CCN(C(c2ccc(N(C)C)cc2)c2nnnn2Cc2ccccc2)CC1 (stereo unspecified) returned HSD17B inh -6%.
Screening O=C(c1ccc(-c2nnc(-c3ccccc3)o2)cc1)N1CCCCCC1 returned HSD17B inh -7%.
For COCCCn1c(SCC(=O)NC2CCCCC2)nnc1-c1ccncc1 the results were HSD17B inh 6%.
Cc1cc(C)c(C(N)=O)c(Nc2cccc(Cl)c2C)n1 was read as HSD17B inh 10%.
`CCOC(=O)C(C(C)=O)c1nc(C)nc2c1nnn2Cc1ccccc1Cl` (stereo unspecified) gave HSD17B inh -10%.
CC(C)=CCc1c(C)nc2ccccc2c1C(=O)O was read as HSD17B inh 6%.
Screening C[C@@H](C(=O)Nc1ccc2ccccc2c1)[C@@H]1C[C@@]1(C)[C@@H](NC(=O)c1cccnc1)c1ccccc1 returned HSD17B inh 2%.
CCOc1ccccc1CNC(=O)C1CCC(=O)N1C(C)C (stereo unspecified) was read as HSD17B inh 8%.
`Cc1cc(C(=O)NCc2cccs2)c(C)o1` gave HSD17B inh inconclusive.
`CCOC(=O)CSc1nc2cc(C(=O)NCc3ccco3)ccc2c(=O)n1-c1ccc(F)cc1` gave HSD17B inh 5%.

Screening data (PubChem)

These rows are one share of the data; count on the stated rates, not on these rows.
